# StopGo RLuc = lowers the Renilla signal of an FMDV 2A StopGo reporter | actives 0.32% (n = 120,000) | Potency, µM (top dose mostly 57.5 µM), for inactives: at the top dose signal change, negative = less light | HEK cells with a luciferase reporter of 2A StopGo recoding; active means well fitted falling curve with a large enough effect; inconclusive means small, poorly fitted or top-dose-only effect; inactive means no such curve, though single readings can be large or run the other way; also: nearly all actives have a fitted effect of over 55% in size; overnight with compound
# StopGo FLuc = FMDV 2A StopGo reporter, firefly signal; AID 1745856; HEK cells with a luciferase reporter of 2A StopGo recoding; Potency, µM (series often up to 57.5 µM), for inactives: at the highest dose signal change, negative = less light; actives 0.23% (n = 120,000); active = well fitted falling curve with a large enough effect; inconclusive = small, poorly fitted or top-dose-only effect; inactive = no such curve, though single readings can be large or run the other way; also: nearly all actives have a fitted effect of over 60% in size; overnight with compound
# * marks the source's active call; other numbers are inactive results; ? = inconclusive; & = joins results of further samples; [ ] = dose if it differs, or a comment. % is scaled to controls: 0 for no effect and ±100 for the full control effect; potency is read from the fitted curve at half-maximal effect.
SMILES,StopGo RLuc,StopGo FLuc
Cn1c(=O)n(Cc2c(F)cccc2Cl)c(=O)c2c1nc1n2CCN1c1ccc(F)cc1,-6%,5%
CCOC(=O)N1CCN(Cc2nc3c(c(=O)[nH]c(=O)n3C)n2Cc2c(F)cccc2Cl)CC1,-4%,2%
Cc1nnc(SCC(=O)N(C)CCOc2ccc(Cl)cc2)n1Cc1ccccc1,15%,-10%
Cc1ccc(C(=O)Nc2ccc(C(O)(C(F)(F)F)C(F)(F)F)cc2)cc1,?,30%
COc1cc(OC)c(NS(=O)(=O)c2cc(C(=O)N3CCCCC3)ccc2C)cc1Cl,157%[activator],-8%
COc1cccc(C2C(C(=O)Nc3ccccc3)=C(C)Nc3nc(-c4ccccc4)nn32)c1 (stereo not given),-13%,-27%
NCC(c1cccs1)c1c[nH]c2ccccc12 (stereo not given),7%,9%
CCOC(=O)C1=C(CNc2ccc(C)c(Cl)c2)NC(=O)NC1c1ccc(Cl)cc1 (stereo not given),?,?
Cc1cc(C(=O)NC(C)C23CC4CC(CC(C4)C2)C3)c(C)o1 (stereo not given),-5%,12%
CC(=O)c1c(-c2ccccc2)nc2n(CCN3CCOCC3)c3ccccc3n12,1%,-6%
CC(C)N(Cc1ccccc1)C(=O)c1cnc2ccccc2n1,5%,82%[activator]
COCc1cccc(C(=O)NC(C)c2ccc(F)c(F)c2)c1 (stereo not given),7%,0%
COC(=O)Cc1c(C)c2ccc(OCC(=O)C(C)(C)C)c(C)c2oc1=O,28µM*,?
O=S(=O)(Nc1cccc(-c2ccc(N3CCCC3)nn2)c1)c1ccc(F)cc1F,59%[activator],136%[activator]
CC(SC1CCCC1)C(=O)Nc1cccc(Cl)c1Cl (stereo not given),1%,23%
O=C(Nc1ccncc1Cl)C(Sc1ccccc1)c1ccccc1 (stereo not given),?,?
CCCOc1ccc(C(=O)/C(=C/c2ccncc2)c2nc3ccccc3o2)cc1,?,?
COc1cccc(NC(=O)CSc2nc3ccccc3nc2Cc2ccccc2OC)c1,-2%,-10%
CC(C)N(Cc1ccccc1)C(=O)COC(=O)c1nn(-c2ccccc2)c(=O)c2ccccc12,0%,2%
O=C(NCc1cccc(Cl)c1)C1CCN(C(=O)c2sccc2-n2cccc2)CC1,26%,20%
Cc1ccc(S(=O)(=O)N2CCCC2c2nc3ccccc3[nH]2)cc1C (stereo not given),0%,16%
CSc1ccc(C(C)NC(=O)c2ccc(F)cc2)cc1 (stereo not given),16%,9%
Cc1noc(C)c1S(=O)(=O)N(CC(=O)Nc1ccc(F)cc1F)c1ccc(C(C)C)cc1,19%,0%
CC(C)OCCCNC(=O)Cn1ccc2c(Cl)cccc21,-7%,11%
CCOc1ccc(S(=O)(=O)n2ccnc2C)cc1,13%,-10%
COc1ccc(-c2cc(-c3nc(-c4ccccc4F)no3)[nH]n2)c(OC)c1,14%,233%[activator]
Cc1ccc(OC(=O)c2ccc(CSc3ccc(Cl)cc3)cc2)c(C(C)(C)C)c1,-5%,-1%
CCCCn1c(=O)[nH]c(=O)c2c1nc(CSc1nnnn1C1CCCC1)n2CC,0%,1%
CCOc1ccc(-c2c(C)nn3c(C)c(C(=O)NCc4ccc(Cl)cc4)cnc23)cc1OCC,-5%,45%[activator]
COC1CCN(CC(=O)Nc2cccc(C(=O)Nc3cccc(C(F)(F)F)c3)c2)CC1,?,?
CC1Sc2ccc(C(=O)NO)cc2NC1=O (stereo not given),3%,18%
CSc1ccc(CCNC(=O)c2cnn(-c3ccccc3)c2-n2cccc2)cc1,7%,13%
Cc1nc2ccccc2nc1SC(C)C(=O)Nc1ccccc1C(F)(F)F (stereo not given),?,?
CC(C)CCNC(=O)c1ccc(CNC(N)=O)cc1,-3%,66%[activator]
Cc1[nH]c2ccc(F)cc2c1C(=O)CCl,2%,13%
O=C(c1ccc(Br)cc1)N(Cc1ccco1)c1ccccn1,37%[activator],50%[activator]
Cc1ccc(CCNC(=O)c2ccc(CS(=O)(=O)c3ccc(Cl)cc3)o2)cc1,11%,26%
Cn1c(SCC(=O)NC2CC2)nnc1-c1ccc(Cl)cc1,23%,44%[activator]
CC(Sc1ccccc1Cl)C(=O)Nc1ccnn1C(C)C (stereo not given),30%,22%
Brc1ccc(OCCSc2nc3ccccc3o2)cc1,2%,52%[activator]

# Some of the entries so far, as labelled records.
> Cc1ccc(CCNC(=O)c2ccc(CS(=O)(=O)c3ccc(Cl)cc3)o2)cc1
  StopGo RLuc = 11%
  StopGo FLuc = 26%
> CC(C)CCNC(=O)c1ccc(CNC(N)=O)cc1
  StopGo RLuc = -3%
  StopGo FLuc = 66%[activator]

# (more compounds)
SMILES,StopGo RLuc,StopGo FLuc
CCC(=O)N1CCc2cc(S(=O)(=O)NC(C(=O)NCCc3ccc(Cl)cc3)C(C)C)ccc21 (stereo not given),0%,-7%
CC(C)(C)OC(=O)N1CCC(c2c(C(=O)NCCN3CCOCC3)cnn2-c2ccc(F)cc2F)CC1,4%,-20%
Cc1cc(SCC(=O)NCc2ccc(Cl)cc2)nc(=O)[nH]1,6%,322%[activator]
COC(=O)c1ccc(CNCc2ccccc2)o1,?,?
COc1cc(CN(C(=O)c2ccc(C)cc2)C2CCS(=O)(=O)C2)cc(OC)c1OC (stereo not given),3%,2%
COc1ccc(C2CC(=O)Nc3c2c(=O)[nH]c2nc4ccccc4n32)cc1 (stereo not given),-6%&-2%,-1%&2%
CNC(=O)C1CCN(C(C)C(=O)c2c[nH]c3ccccc23)CC1 (stereo not given),-6%,-1%
O=C(Nc1ccc2cc[nH]c2c1)C(=O)N1CCCC1,60%[activator],178%[activator]
CCOC(=O)N1CCN(C(=O)CNC(=O)c2cc3cc(OC)ccc3n2C)CC1,-6%,-6%
O=C(Cc1ccccc1)N(Cc1cccnc1)c1nc2ccc(Cl)cc2s1,-6%,-20%
N#Cc1nc(-c2ccc(COc3ccc4ccccc4c3)o2)oc1N1CCC(C(N)=O)CC1,14%,41%[activator]
CC(Oc1ccc(C=Nc2ccc(N3CCOCC3)cc2)cc1)C(=O)O (stereo not given),38%,0%
NC(=O)c1ccccc1NCc1cccc2ccccc12,78%[activator],0%
NC(=NCc1ccccc1)NCCN1CCN(Cc2ccccc2)CC1,12%,10%
COc1ccc(Cl)cc1NC(=O)Cc1coc2cc(C)c(C)cc12,28%,19%
Cc1[nH]c2ccccc2c1C(=O)/C(C#N)=C\c1ccccc1,-2%,-3%
Cc1c(C(N)=O)nnn1-c1ccc(Br)cc1,9%,14%
COc1cccc2cc(-c3nc4sc5c(c4c(=O)[nH]3)CCC(C(C)(C)C)C5)c(=O)oc12 (stereo not given),-15%,-6%
COc1cc(NC(=O)Cn2ccc3ccccc3c2=O)cc(OC)c1OC,-10%,-14%
CCC(Oc1ccccc1)C(=O)Nc1cc(-c2cccc(C)c2)nn1-c1ccccc1 (stereo not given),11%,34%[activator]

# The final 2 records of the section before come first, to join the parts.
SMILES,StopGo RLuc,StopGo FLuc
COc1cc(NC(=O)Cn2ccc3ccccc3c2=O)cc(OC)c1OC,-10%,-14%
CCC(Oc1ccccc1)C(=O)Nc1cc(-c2cccc(C)c2)nn1-c1ccccc1 (stereo not given),11%,34%[activator]
O=C(Cc1ccc2c(c1)CCC2)Nc1nc2ccc(F)cc2s1,22%,171%[activator]
Nc1c2c(nc3c1CCC3)CCCC2,-5%,-15%
CCN1CCN(c2nc3ccccc3nc2C(C#N)S(=O)(=O)c2cccc(C)c2)CC1 (stereo not given),92%[activator],15%
CCNC(=O)CSc1cc(C)c2cccc(C)c2n1,27%,26%
CC(C)n1ncc2cc(C(=O)NCc3ccc(OC(F)F)cc3)cnc21,-1%,46%[activator]
Cc1cc(C)nc(-n2nc(C)c3c2NC(=O)CC3c2ccccc2OC(C)C)n1 (stereo not given),-19%,-20%
Cc1cc(F)ccc1NC(=S)NCc1ccccc1,170%[activator],21%
Cc1oc(-c2ccccc2)nc1C(=O)N(C)C(C)C(C)(C)C (stereo not given),7%,7%
Cc1ccc(NC(=O)CSCc2cc(=O)n3ccsc3n2)cc1C,-3%,30%
COc1cc(/C=C/C(=O)c2ccc(C)cc2OC)ccc1OC(F)F,?,?
CCN(C(=O)c1cc2c(=O)oc3ccccc3c2s1)c1ccc(C)c(C)c1,-4%,-11%
Cc1nc2cccc(C(=O)Oc3ccc(Cl)cc3)c2o1,-7%,0%
COc1ccc(C(=O)COC(=O)c2cccc(NC(=O)c3ccc(OC)c(OC)c3)c2)cc1,?,-22%
CN(C)C(=O)Cc1cccc(N)c1,14%,0%
COC(=O)c1ccc(Oc2c(C(F)(F)F)oc3cc(O)ccc3c2=O)cc1,?,?
Cc1cc(C)n(-c2nnc(SCC(=O)Nc3ccccc3C)n2N)n1,11%,-5%
CCCN(c1ccccc1F)S(=O)(=O)c1cc(-c2cc(C)no2)ccc1C,64%[activator],-5%
O=C(Nc1ccc(F)cc1F)c1cc(-c2ccco2)nc2ccccc12,18%,1%
O=C(Nc1cc(Cl)cc(Cl)c1)C(=O)c1c[nH]c2ccccc12,-2%,172%[activator]
Oc1c(C(c2ccc(Cl)cc2Cl)N2CCCC2)sc2nc(-c3ccco3)nn12 (stereo not given),-7%,-1%
CCn1cc(C(=O)N(C)Cc2ccccc2)c(=O)c2cc(S(=O)(=O)N3CCCCC3)ccc21,-13%,-18%
CC(C)(C)NC(=O)Cc1n[nH]c(=O)c2ccccc12,-16%,-2%
N#Cc1ccc(CCC(=O)O)cc1,5%,4%
Cc1ccc(NC(=O)C(C)N(C)Cc2ccc3c(c2)OCCO3)cc1 (stereo not given),4%,25%
COc1ccc(Cl)cc1NC(=O)CCCn1nc(-n2cccc2)c2c(C)cc(C)nc21,25%,16%
CC(C)(C)c1nnc(Nc2cccc(Cl)c2)[nH]c1=O,-12%,-1%
O=C(CN1CCN(C(=O)CCNS(=O)(=O)c2ccc(F)cc2)CC1)Nc1ccccc1Cl,9%,-7%
O=C(Nc1cccc2cccnc12)C1=C(c2ccccc2)S(=O)(=O)CCO1,-14%,19%
O=C1CC(c2ccc(Cl)cc2)CC2=C1C=Nc1ccccc1N2 (stereo not given),-9%,0%
CC(C(=O)Nc1ccc2[nH]c(=O)[nH]c2c1)N(C)Cc1ccc(Cl)cc1Cl (stereo not given),-27%,-17%
Clc1ccc(COc2cccc(CNC3CN4CCC3CC4)c2)c(Cl)c1 (stereo not given),-8%,40%[activator]
CCCNC(=O)N1[C@H](c2cccs2)[C@@H](C)C(=O)[C@@H](C)[C@@H]1c1cccs1,10%,19%
O=c1c2sc3ccccc3c2n(Cc2ccccc2F)c(=O)n1-c1ccccc1Cl,-7%,?
COc1ccc(Cl)cc1NC(=O)c1cc2ccc3ccc(C)[nH]c3c2n1,24%,159%[activator]
CCOc1ccc(NC(=O)C(=O)NCCc2sc(-c3ccc(C)cc3)nc2C)cc1,-1%,19%
O=C(NN1CC(C(=O)OCc2ccc(Br)cc2)CC1=O)c1ccccc1 (stereo not given),-6%,2%
Cc1cc(C)cc(NC(=O)CCn2cnc3c2c(=O)n(C)c(=O)n3C)c1,2%,3%
COc1ccc2oc(-c3ccc(NC(=O)c4ccc(Cl)cc4Cl)cc3)nc2c1,7%,-8%
COc1ccc(NC(C)=O)cc1NC(C)C(=O)N(C)Cc1cccc(F)c1 (stereo not given),19%,21%
CC(=O)c1c(C)[nH]c(-c2csc(NC3CCCCC3)n2)c1C,59%[activator],14%

# Profiles, looked up by structure. Screens in order: StopGo RLuc, StopGo FLuc
# CC(=O)c1c(C)[nH]c(-c2csc(NC3CCCCC3)n2)c1C is entered as 59%[activator], 14%
# Cc1cc(C)cc(NC(=O)CCn2cnc3c2c(=O)n(C)c(=O)n3C)c1 is entered as 2%, 3%
# Clc1ccc(COc2cccc(CNC3CN4CCC3CC4)c2)c(Cl)c1 (stereo not given) is entered as -8%, 40%[activator]
# COc1ccc(NC(C)=O)cc1NC(C)C(=O)N(C)Cc1cccc(F)c1 (stereo not given) is entered as 19%, 21%
# COc1ccc2oc(-c3ccc(NC(=O)c4ccc(Cl)cc4Cl)cc3)nc2c1 is entered as 7%, -8%

# Additional entries.
SMILES,StopGo RLuc,StopGo FLuc
CC(C)NC(=O)c1ccc(CSc2nc3ccncc3n2Cc2cccc(F)c2)cc1,-7%,-8%
CCC1CN(C(=O)N2CCC(C(=O)NCCc3cc(OC)ccc3OC)CC2)c2ccccc2O1 (stereo not given),-7%,-18%
COc1ccc2cc3[n+](cc2c1OC)CCc1cc2c(cc1-3)OCO2,?,?
CCOc1ccccc1NC(=O)CCn1cnnn1,2%,-10%
Cc1ccc(C(=O)C(C)OC(=O)c2cccc(N(C)C)c2)cc1 (stereo not given),-2%,91%[activator]
O=C(Nc1ccc2nc(N3CCN(c4ccccc4)CC3)cc(C(=O)O)c2c1)c1cccc(Cl)c1,-5%,-2%
CCCCNC(=O)c1ccc(F)cc1,22%,77%[activator]
CNS(=O)(=O)c1cn(CC(=O)Nc2ccc(F)cc2F)cc1S(=O)(=O)NC,98%[activator],25%
Cn1c(=O)c2nc(SCCC(=O)O)n(Cc3ccc(F)cc3)c2n(C)c1=O,25%,17%
CCCc1cc(=O)oc2cc(C)cc(OCC(=O)NCCN3CCOCC3)c12,11%,9%
CCc1ccc(N2C(=O)CC(c3cc(OC)ccc3OC)C3=C2COC3=O)cc1 (stereo not given),5%,-11%
CCOC(=O)c1ccc(NC(=O)CC2C(=O)N(c3ccc(C)cc3)C(=O)N2C2CCCCC2)cc1 (stereo not given),-7%,-2%
O=C(Nc1cccc(Cl)c1)c1ccc2c(Cl)c3c(nc2c1)CCCC3,13%,191%[activator]
CCCCN(C)CCCNC(=O)C1CCN(S(=O)(=O)CC)CC1,-14%,-17%
COc1ccccc1C(=O)n1nc(-c2cccnc2)nc1NCc1ccccc1,-14%,-1%
Cc1ccc(-c2nc(-c3cc4c([nH]c3=O)CC(C)(C)CC4=O)sc2C)cc1,-13%,-11%
CC(=O)NN1C(=O)c2ccccc2NC1c1ccccn1 (stereo not given),-1%,1%

# Source: PubChem
